VACV Venus inh – qHTS for Stage-Specific Inhibitors of Vaccinia Orthopoxvirus: Venus Reporter Primary qHTS | 0.46% of 330,000 active | AID 720580, 2013 | Potency, µM (highest dose often 36.5 µM), for the others: at the top dose activity change, negative = inhibition, actives largely listed as inhibitors | Vaccinia virus Venus reporter expression, fluorescence; active means well fitted inhibition curve with a large enough effect; inconclusive means small, poorly fitted or top-dose-only effect; inactive means no such curve, though single readings can be large or run the other way; tested in A549 cells; further: nearly all actives have a fitted effect of over 30% in size; inactives centre near -10
Vaccinia mCherry – qHTS for Stage-Specific Inhibitors of Vaccinia Orthopoxvirus: mCherry Reporter Primary qHTS. Vaccinia virus mCherry reporter infection, fluorescence; about a quarter of the inactives have no number. Potency, µM (top dose mostly 36.5 µM), for the others: at the highest dose activity change, negative = inhibition, most hits filed as inhibitors. 0.63% of 310,000 active; active = well fitted inhibition curve with a large enough effect; inconclusive = small, poorly fitted or top-dose-only effect; inactive = no such curve, though single readings can be large or run the other way; tested in A549 cells; further: nearly all actives have a fitted effect of over 35% in size; inactives centre near -10
Active calls of the source: *; & = joins results of further samples; [ ] = another dose, or the depositor's remark. On the % scale 0 is the no-effect control and ±100 the full control effect; potency means the concentration at half of the fitted maximal effect.

What do the screens show for `CCCc1nn(C(=O)c2ccccc2)c2c1C(=O)CC(C)(C)C2`?
VACV Venus inh: -8%; Vaccinia mCherry: inactive

How did CN(c1ccccc1C(=O)O)S(=O)(=O)c1ccc2c3c(cccc13)C(=O)N2 do in these assays?
VACV Venus inh: -14%; Vaccinia mCherry: -10%[1.46 µM]

What do the screens show for `CCN(Cc1ccccc1)Cc1c(O)ccc2oc(C)c(C(=O)Nc3ccc(C)cc3C)c12`?
VACV Venus inh: -22%; Vaccinia mCherry: -10%

Results for COc1cc(C(=O)NCCC(=O)NCCCN2CCCCC2)cc(OC)c1OC ?
VACV Venus inh: -4%; Vaccinia mCherry: -15%

What do the screens show for `COC(=O)c1nn(-c2ccc(OC)cc2)ccc1=O`?
VACV Venus inh: -17%; Vaccinia mCherry: -7%

What do the screens show for `COc1ccc(NC(=O)N2CCc3ccccc32)cc1`?
VACV Venus inh: -16%; Vaccinia mCherry: inactive

How did CCOc1ccccc1NC1=CC(=O)CC(c2ccccc2)C1 (centres undefined) do in these assays?
VACV Venus inh: -27%; Vaccinia mCherry: inconclusive

How did CSc1ccccc1CNC(=O)C1(C)CCCN1CC(C)C (centres undefined) do in these assays?
VACV Venus inh: 2%; Vaccinia mCherry: 11%

How did O=C(NCCCN1CCC(Cc2ccccc2)CC1)C1CCN(S(=O)(=O)N2CCOCC2)CC1 do in these assays?
VACV Venus inh: -8%; Vaccinia mCherry: -9%[1.46 µM]

What do the screens show for `CCN1CCN(C(c2cccc(F)c2)c2c(O)cc(C)n(Cc3ccco3)c2=O)CC1` (centres undefined)?
VACV Venus inh: -13%; Vaccinia mCherry: -21%

How did Cc1ccc(N(CC(=O)NC2CCCC2)C(=O)CCC(=O)Nc2nccs2)c(C)c1 do in these assays?
VACV Venus inh: -10%; Vaccinia mCherry: -5%

Results for CCOC(=O)c1cccc(NC(=O)CSc2nnc(CNc3ccc(C)cc3)n2CC)c1 ?
VACV Venus inh: -9%; Vaccinia mCherry: inactive

How did CCOC(=O)c1nn(-c2ccccc2C)c2nc(Nc3ccccc3)cc(=O)n12 do in these assays?
VACV Venus inh: -7%; Vaccinia mCherry: inactive

What do the screens show for `CN1CCN(CC#CC(C)(O)C2CC3C=CC2C3)CC1` (centres undefined)?
VACV Venus inh: -12%; Vaccinia mCherry: inactive

How did CCOC(=O)c1c(C)[nH]c(C)c1S(=O)(=O)N1CCCC(C(=O)NCc2cccc(C)c2)C1 (centres undefined) do in these assays?
VACV Venus inh: -1%; Vaccinia mCherry: -9%

The closing 5 entries of the part before come first, to join the parts:
How did Cc1ccc(N(CC(=O)NC2CCCC2)C(=O)CCC(=O)Nc2nccs2)c(C)c1 do in these assays?
VACV Venus inh: -10%; Vaccinia mCherry: -5%

Results for CCOC(=O)c1cccc(NC(=O)CSc2nnc(CNc3ccc(C)cc3)n2CC)c1 ?
VACV Venus inh: -9%; Vaccinia mCherry: inactive

How did CCOC(=O)c1nn(-c2ccccc2C)c2nc(Nc3ccccc3)cc(=O)n12 do in these assays?
VACV Venus inh: -7%; Vaccinia mCherry: inactive

What do the screens show for `CN1CCN(CC#CC(C)(O)C2CC3C=CC2C3)CC1` (centres undefined)?
VACV Venus inh: -12%; Vaccinia mCherry: inactive

How did CCOC(=O)c1c(C)[nH]c(C)c1S(=O)(=O)N1CCCC(C(=O)NCc2cccc(C)c2)C1 (centres undefined) do in these assays?
VACV Venus inh: -1%; Vaccinia mCherry: -9%

Results for CCc1nc(C#N)c(N2CCOCC2)o1 ?
VACV Venus inh: -7%; Vaccinia mCherry: -12%

Results for CCOC(=O)Cc1nnc(-c2ccccc2)o1 ?
VACV Venus inh: -5%; Vaccinia mCherry: inactive

Results for NC(=O)CSc1oc(-c2ccco2)nc1S(=O)(=O)c1ccc(Br)cc1 ?
VACV Venus inh: -9%&-5%; Vaccinia mCherry: -17%&-10%

Results for Cc1cccnc1NC(=O)c1ccco1 ?
VACV Venus inh: 0%; Vaccinia mCherry: -7%

How did CNC(=O)c1c(NC(=O)c2nc(SCc3ccc(C)cc3)ncc2Cl)sc2c1CCCC2 do in these assays?
VACV Venus inh: 5%; Vaccinia mCherry: 0%

How did Cc1ccc(S(=O)(=O)N2CCC(=O)N(C(COCc3ccc(Cl)c(Cl)c3)Cc3ccccc3)CC2)cc1 (centres undefined) do in these assays?
VACV Venus inh: -27%; Vaccinia mCherry: -22%

Results for Cc1[nH]c2c(Cl)cccc2c1CCNC(=O)C1CCCCC1C(=O)OCC(F)(F)F (centres undefined) ?
VACV Venus inh: -22%; Vaccinia mCherry: -26%

Results for O=C(Nc1ccccc1[N+](=O)[O-])c1cccnc1Cl ?
VACV Venus inh: -14%; Vaccinia mCherry: -6%

Results for Cc1cccc(NC(=O)CCC(=O)N/N=C/c2cccnc2)c1 ?
VACV Venus inh: 0%; Vaccinia mCherry: -12%

What do the screens show for `Cc1ccnc(NC(=O)CNC(=O)c2ccc(C)s2)c1`?
VACV Venus inh: -23%; Vaccinia mCherry: -18%

What do the screens show for `COC(=O)C1=C(c2cccc(OC)c2OC)C[C@@H]2CC[C@H]1N2C(=O)N1CCC(C)CC1`?
VACV Venus inh: -10%; Vaccinia mCherry: inactive

Results for COc1ccc(C(CNC(=S)NCc2ccccc2)N2CCCC2)cc1 (centres undefined) ?
VACV Venus inh: -5%; Vaccinia mCherry: inactive

What do the screens show for `O=C(N/N=C/c1ccc2c(c1)OCO2)c1cccc(NC(=O)c2ccccc2Cl)c1`?
VACV Venus inh: -20%; Vaccinia mCherry: inconclusive

Results for CCN(C(=O)CSc1nnc(Cc2cccc3ccccc23)n1N)C1CCS(=O)(=O)C1 (centres undefined) ?
VACV Venus inh: -13%; Vaccinia mCherry: -6%[1.46 µM]

How did CCCC(c1nnnn1CCC(C)C)N1CCC(C(N)=O)CC1 (centres undefined) do in these assays?
VACV Venus inh: -15%; Vaccinia mCherry: -16%

What do the screens show for `COc1ccc(CNc2ccc(S(N)(=O)=O)cc2)cc1`?
VACV Venus inh: -13%; Vaccinia mCherry: -19%

How did O=C(OC1CCOC1=O)c1ccc(N2CCCC2)c([N+](=O)[O-])c1 (centres undefined) do in these assays?
VACV Venus inh: -4%; Vaccinia mCherry: inactive

How did CSCCC(NC(=O)c1cc([N+](=O)[O-])ccc1Cl)C(=O)O (centres undefined) do in these assays?
VACV Venus inh: -15%; Vaccinia mCherry: -10%

How did CCCc1n[nH]c2c1/C(=N\OCC)CC(C)(C)C2 do in these assays?
VACV Venus inh: -16%; Vaccinia mCherry: -18%

How did CCc1cc2c(=O)c(-c3nc4ccccc4n3C)coc2c(CN2CCC(C)CC2)c1O do in these assays?
VACV Venus inh: 1%; Vaccinia mCherry: inactive

What do the screens show for `CCC(=O)N1CCc2cc(S(=O)(=O)NCCCOC)ccc21`?
VACV Venus inh: -5%; Vaccinia mCherry: -7%

What do the screens show for `CC(CN(C)Cc1ccccc1)OC(=O)c1cccc(F)c1` (centres undefined)?
VACV Venus inh: -5%; Vaccinia mCherry: -4%

What do the screens show for `Cc1cccc(NC(=O)c2ccc(F)c(S(=O)(=O)NCc3ccc4c(c3)OCO4)c2)c1`?
VACV Venus inh: -17%; Vaccinia mCherry: -13%

What do the screens show for `Cc1ccc(C2C=C(c3ccc(F)cc3)Nc3nc(CCCO)nn32)cc1` (centres undefined)?
VACV Venus inh: -14%; Vaccinia mCherry: -10%

Results for Cc1cccc(N2CCN(C(=O)Cn3cnc4sc(C)c(S(=O)(=O)N5CCN(c6ncccn6)CC5)c4c3=O)CC2C)c1 (centres undefined) ?
VACV Venus inh: -18%; Vaccinia mCherry: -22%

How did Cc1ccccc1NC(=O)c1cccc(S(=O)(=O)N2CCOCC2)c1 do in these assays?
VACV Venus inh: -5%; Vaccinia mCherry: -21%

What do the screens show for `CCOC(=O)[C@]12CCC=C1N(Cc1ccc3c(c1)OCO3)C(=O)[C@H](CC(=O)N1CCC(c3ccccc3)CC1)C2`?
VACV Venus inh: -6%; Vaccinia mCherry: -22%

Results for CCc1ccc(N2CC(C(=O)OCC(=O)NC3CC3)CC2=O)cc1 (centres undefined) ?
VACV Venus inh: 0%; Vaccinia mCherry: -8%

What do the screens show for `CC(C)(C)N(NC(=O)Nc1ccc(Cl)cc1)C(=O)c1ccccc1`?
VACV Venus inh: -13%; Vaccinia mCherry: -22%

What do the screens show for `CCOc1ccccc1N1C(=O)c2ccc(S(=O)(=O)c3ccc(C(=O)O)cc3)cc2C1=O`?
VACV Venus inh: 0%; Vaccinia mCherry: inactive

Results for Cc1ccc(NC(=O)CSCc2cc(=O)n3nc(C4CC4)sc3n2)cc1 ?
VACV Venus inh: 2%[7.34 µM]; Vaccinia mCherry: 3%[7.34 µM]

What do the screens show for `CCOC(=O)C1CCN(C(=O)c2cc3c(=O)n4cccc(C)c4nc3s2)CC1`?
VACV Venus inh: -4%; Vaccinia mCherry: -15%

Results for COc1cc(C(=O)CCc2ccc3c(c2)OCO3)cc(OC)c1OC ?
VACV Venus inh: 9%; Vaccinia mCherry: inactive

Results for Cc1ccc(S(=O)(=O)c2c(N)n(CCN3CCOCC3)c3nc4ccccc4nc23)cc1C ?
VACV Venus inh: -2%; Vaccinia mCherry: 2%

What do the screens show for `O=C(CCc1ccccc1)N/N=C/c1cccc(O)c1`?
VACV Venus inh: -14%; Vaccinia mCherry: -24%

What do the screens show for `Cc1[nH]c2ccccc2c1CCNC(=O)c1c(N)no[n+]1[O-]`?
VACV Venus inh: -14%; Vaccinia mCherry: -15%

How did Cc1cc(CN2CCN(CC(=O)Nc3cc(Cl)ccc3-n3cncn3)CC2)no1 do in these assays?
VACV Venus inh: -10%; Vaccinia mCherry: inactive

How did COC(=O)c1nnc(-c2ccccc2)nc1OC do in these assays?
VACV Venus inh: -3%

Results for C=CCNC(=O)c1c(Cl)nc(C)c([N+](=O)[O-])c1C ?
VACV Venus inh: -2%; Vaccinia mCherry: -8%

What do the screens show for `C[C@H](CO)N1C[C@H](C)[C@H](CN(C)C(=O)Nc2ccc(C(F)(F)F)cc2)OCc2cnnn2CCCC1=O`?
VACV Venus inh: -11%; Vaccinia mCherry: inactive

How did COCc1ccc(C(=O)N2CCCC(N3CCN(c4ccc(F)cc4)CC3)C2)o1 (centres undefined) do in these assays?
VACV Venus inh: -10%; Vaccinia mCherry: -16%

What do the screens show for `Cc1[nH]c2ccccc2c1C(=O)C(=O)NCCc1ccc(S(N)(=O)=O)cc1`?
VACV Venus inh: -15%; Vaccinia mCherry: inactive

How did CCN(CC)S(=O)(=O)c1ccc(NC(=O)COC(=O)CNS(=O)(=O)/C=C/c2ccccc2)cc1 do in these assays?
VACV Venus inh: -9%; Vaccinia mCherry: -15%

How did COc1ccc(/C=C/C(=O)NCc2cccnc2)cc1 do in these assays?
VACV Venus inh: -4%; Vaccinia mCherry: -8%

How did CCN(CC(=O)Nc1c(F)cccc1F)C(=O)c1ccc2c(c1)NC(=O)C(C)S2 (centres undefined) do in these assays?
VACV Venus inh: -15%; Vaccinia mCherry: inactive

Results for CCCn1c(=O)c(C(=O)Nc2ccccc2)c(O)c2ccccc21 ?
VACV Venus inh: inconclusive

How did O=C(CSc1nnc(CNC(=O)c2c(F)cccc2F)o1)NCc1ccc2c(c1)OCO2 do in these assays?
VACV Venus inh: -4%; Vaccinia mCherry: inconclusive

What do the screens show for `Cc1ccc(CC(=O)NC2CCSC2=O)cc1` (centres undefined)?
VACV Venus inh: -7%; Vaccinia mCherry: inactive

Results for COc1cc(CNCCc2ccccc2)ccc1OCC(=O)NC(C)(C)C ?
VACV Venus inh: -15%; Vaccinia mCherry: inactive

How did CCOc1ccccc1Nc1ncnc2c1c(-c1ccccc1)cn2-c1ccc(OC)cc1 do in these assays?
VACV Venus inh: -8%; Vaccinia mCherry: -12%

Results for CCOC(=O)C1=CN2CCC[C@H]2CC1=O ?
VACV Venus inh: -18%; Vaccinia mCherry: inactive

How did COc1ccc(-c2cn3c(C)c(C(=O)Nc4cccc(C)n4)sc3n2)cc1 do in these assays?
VACV Venus inh: -6%; Vaccinia mCherry: -18%

How did Cc1ccc(NC(=O)C2(C)CCN2C(=O)Cc2ccccc2)cc1C (centres undefined) do in these assays?
VACV Venus inh: 5%; Vaccinia mCherry: 10%

Results for Cc1noc(-c2ccc(-c3noc(-c4ccc(C(F)(F)F)cc4)n3)cc2)n1 ?
VACV Venus inh: -20%; Vaccinia mCherry: -22%

What do the screens show for `Cn1nc(C2CC2)cc1NC(=O)C1(C)CCN1C(=O)CC(c1ccccc1)c1ccccc1` (centres undefined)?
VACV Venus inh: -12%; Vaccinia mCherry: -15%

What do the screens show for `CSc1nnnn1-c1ccc(Cl)cc1`?
VACV Venus inh: -2%; Vaccinia mCherry: -3%

Results for Cn1c(=O)c2c(nc(CN3CCN(C(=O)c4ccco4)CC3)n2CCCc2ccccc2)n(C)c1=O ?
VACV Venus inh: 3%; Vaccinia mCherry: inactive

What do the screens show for `CCC1(CC)C(=O)N(C)C(=O)NC1=NC`?
VACV Venus inh: -4%; Vaccinia mCherry: -11%

What do the screens show for `COC(=O)c1ccc(C)c(NS(=O)(=O)c2ccc(OC)cc2)c1`?
VACV Venus inh: inconclusive; Vaccinia mCherry: inconclusive

Sorted by heavy-atom count (low to high): part of the list above
Results for CCOC(=O)C1=CN2CCC[C@H]2CC1=O ?
VACV Venus inh: -18%; Vaccinia mCherry: inactive

How did COc1ccc(-c2cn3c(C)c(C(=O)Nc4cccc(C)n4)sc3n2)cc1 do in these assays?
VACV Venus inh: -6%; Vaccinia mCherry: -18%

Results for Cn1c(=O)c2c(nc(CN3CCN(C(=O)c4ccco4)CC3)n2CCCc2ccccc2)n(C)c1=O ?
VACV Venus inh: 3%; Vaccinia mCherry: inactive

Compound activity deposited in PubChem BioAssay by National Center for Advancing Translational Sciences (NCATS).
